WNV protease inh: inhibitors of WNV NS2B-NS3 protease, primary screen, biochemical, fluorogenic substrate | Genome polyprotein (West Nile virus), P06935 | fluorogenic substrate Ex360/Em465; active compounds read low | z-score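 (tested at a level between 10 and 100 µM)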 | 65,000 compounds, 0.18% hits | AID 577, 2007;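 active = z-score at -3 or under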;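 note: score is relative to mean and spread of the compound wells of a plate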
Target sequence (P06935 1371-1501 limits assumed): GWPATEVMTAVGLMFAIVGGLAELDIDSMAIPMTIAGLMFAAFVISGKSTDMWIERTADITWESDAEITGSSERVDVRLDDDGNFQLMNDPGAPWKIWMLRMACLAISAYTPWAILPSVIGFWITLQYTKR
Target sequence (P06935 1502-1679 limits assumed): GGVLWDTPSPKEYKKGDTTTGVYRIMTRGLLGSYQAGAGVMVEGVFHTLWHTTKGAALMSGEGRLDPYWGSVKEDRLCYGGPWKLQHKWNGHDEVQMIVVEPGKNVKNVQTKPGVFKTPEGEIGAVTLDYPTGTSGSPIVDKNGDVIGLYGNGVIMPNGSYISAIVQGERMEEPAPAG
MT1-MMP reporter: inhibitors of MT1-MMP promoter transcription, cell-based, luciferase reporter, luminescence (AID 618) | MT1-MMP promoter luciferase reporter cells, luminescence | calls from a first round at 10 µM; hits with a dose series show EC50 in µM | 87,000 compounds, 0.62% hits;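 active = over half of the reporter light lost at 10 µM or EC50 under 50 µM; inactive = the rest and hits that failed the dose series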;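 note: actives suppress MT1-MMP promoter-driven transcription so potencies describe inhibitors; HT1080 fibrosarcoma cells; overnight exposure; toxic or luciferase-blocking compounds were not removed from the actives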
Hsc70 ATP site: Hsc70 inhibitors, probe displacement, primary screen, biochemical, fluorescence polarization (AID 568); Heat shock cognate 71 kDa protein (Homo sapiens); Hsc70 fluorescence polarization, probe displacement; higher % means a stronger effect; strong numbers were not always called active; displacement, % at 20 µM; hits with a dose series show IC50 in µM; 83,000 tested, under 10 active;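 active = displacement above 50% without optical interference and an IC50 on retest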;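 note: ATPase domain with a fluorescein-tagged ATP probe; 0% = vehicle and 100% = excess ADP; read after one hour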
* hit, by the source's call. This is a subset. The share of hits here may be higher or lower than overall.

Cc1cccc(C2N(c3nccs3)C(=O)C3CCCN32)c1 (stereo unspecified) was read as WNV protease inh -0.87, MT1-MMP reporter inactive and Hsc70 ATP site -1.2%.
Screening O=S(=O)(Nc1ccccc1Cl)c1ccc(F)cc1 returned WNV protease inh -0.0097, MT1-MMP reporter inactive and Hsc70 ATP site -0.9%.
C=CCn1c(SCc2cc(=O)n3ccsc3n2)nc2sc(C)c(C)c2c1=O was read as WNV protease inh 0.57, MT1-MMP reporter inactive and Hsc70 ATP site -0.3%.
For CCOc1ccccc1C(=O)Nc1nnc(C(C)C)s1 the results were WNV protease inh -1.7, MT1-MMP reporter inactive and Hsc70 ATP site 6.6%.
For O=C(OCc1nnc(-c2ccccc2)o1)c1cn(-c2ccccc2)nc1-c1ccccc1 the results were WNV protease inh 0.6, MT1-MMP reporter inactive and Hsc70 ATP site -20%.
Screening CCCn1nnc(NC(=O)c2ccc(OCC)c(Cl)c2)n1 returned WNV protease inh 0.26, MT1-MMP reporter inactive and Hsc70 ATP site 2.1%.
CN(C)c1nc(N)nc(-c2ccco2)n1 was read as WNV protease inh -0.11, MT1-MMP reporter inactive and Hsc70 ATP site -3.7%.
For C=C(C)CSc1nnc([C@@H](NC(=O)OC(C)(C)C)C(C)CC)o1 (stereo partly specified) the results were WNV protease inh -0.26, MT1-MMP reporter inactive and Hsc70 ATP site -4.2%.
`O=C(CN1CCC(n2nnc3cc(F)ccc32)CC1)Nc1ccccc1N1CCOCC1` gave WNV protease inh 1.7, MT1-MMP reporter inactive and Hsc70 ATP site -7.9%.
For CCC(CC)C(=O)Nc1cc(NC(=O)C(CC)CC)cc(C(=O)O)c1 the results were WNV protease inh -0.53, MT1-MMP reporter inactive and Hsc70 ATP site 2.4%.

A draw from above in order of molar mass, rising.
CN(C)c1nc(N)nc(-c2ccco2)n1 was read as WNV protease inh -0.11, MT1-MMP reporter inactive and Hsc70 ATP site -3.7%.
Screening CCCn1nnc(NC(=O)c2ccc(OCC)c(Cl)c2)n1 returned WNV protease inh 0.26, MT1-MMP reporter inactive and Hsc70 ATP site 2.1%.
`O=C(CN1CCC(n2nnc3cc(F)ccc32)CC1)Nc1ccccc1N1CCOCC1` gave WNV protease inh 1.7, MT1-MMP reporter inactive and Hsc70 ATP site -7.9%.

(continued)
Screening S=C(c1ccc(-c2cc(Cl)ccc2Cl)o1)N1CCOCC1 returned WNV protease inh 0.7, MT1-MMP reporter inactive and Hsc70 ATP site -5.8%.
For CCCNC(=O)c1cccc(COCC(F)(F)F)c1 the results were MT1-MMP reporter inactive and Hsc70 ATP site 0.4%.
Screening Cc1cc(-n2nc(C)cc2C)nc(N)n1 returned WNV protease inh -0.27, MT1-MMP reporter inactive and Hsc70 ATP site -1.7%.
`COc1ccc(C(C)(C)C)cc1NC(=O)c1cncc(Br)c1` gave MT1-MMP reporter inactive and Hsc70 ATP site 1.6%.
`O=C(CN1CCN(c2ccc(F)cc2)CC1)Nc1nnc(-c2ccccc2)s1` gave WNV protease inh -0.39, MT1-MMP reporter inactive and Hsc70 ATP site -16%.
Screening CCC(Oc1ccccc1)C(=O)Nc1nnc(C(F)(F)F)s1 (stereo unspecified) returned WNV protease inh 0.33, MT1-MMP reporter inactive and Hsc70 ATP site -4.9%.
`CCC(OC(=O)c1ccco1)C(=O)NCc1ccc(C)cc1` (stereo unspecified) gave WNV protease inh -0.4, MT1-MMP reporter inactive and Hsc70 ATP site -2.6%.
`CCOC(=O)c1c(NC(=O)CSc2nnc(C)c(=O)[nH]2)sc2c1CCC2` gave WNV protease inh -1.4, MT1-MMP reporter inactive and Hsc70 ATP site 0.8%.
`CCCNC(=O)N1CCN(c2ncccn2)CC1` gave WNV protease inh -0.43, MT1-MMP reporter inactive and Hsc70 ATP site 3.2%.
For CCOC(=O)c1cnc(SCC(=O)Nc2cc(OC)ccc2OC)nc1N the results were MT1-MMP reporter inactive and Hsc70 ATP site -5.3%.
For O=C(CN1CCC(O)(c2ccc3c(c2)OCO3)CC1)OC1CCCCC1 the results were WNV protease inh -1.3, MT1-MMP reporter inactive and Hsc70 ATP site 1.2%.
O=C(NC1CCCCC1)C1CCN(S(=O)(=O)N2CCOCC2)CC1 was read as WNV protease inh -1.7, MT1-MMP reporter inactive and Hsc70 ATP site -2.1%.
Cn1c(/C=N/c2nc3ccccc3[nH]2)nc2ccccc21 was read as WNV protease inh 0.95, MT1-MMP reporter inactive and Hsc70 ATP site 2.9%.
`CCOc1ccccc1OCCOCCN1CC(C)OC(C)C1` (stereo unspecified) gave WNV protease inh 0.56, MT1-MMP reporter inactive and Hsc70 ATP site 3.4%.
`Cc1c(NC(=O)C(C)N2C(=O)c3ccccc3C2=O)c(=O)n(-c2ccccc2)n1C` (stereo unspecified) gave WNV protease inh -0.52, MT1-MMP reporter inactive and Hsc70 ATP site -1.8%.
COC(=O)c1[nH]c2cc(OC)ccc2c1NC(=O)CN1CCC(C(N)=O)CC1 was read as WNV protease inh 2.3, MT1-MMP reporter inactive and Hsc70 ATP site 2.7%.
COC(=O)C(Cc1ccc(O)cc1)NC(=O)CCC(=O)Nc1ccc(S(N)(=O)=O)cc1 (stereo unspecified) was read as WNV protease inh -0.45, MT1-MMP reporter inactive and Hsc70 ATP site -7.9%.
Screening COC(=O)c1c(C)oc2ccc(OC(=O)N3CCOCC3)cc12 returned WNV protease inh -0.88, MT1-MMP reporter inactive and Hsc70 ATP site 3.9%.
Screening CCc1nnc(NC(=O)C2CCCN2C(=O)NC2CCCCC2)s1 (stereo unspecified) returned WNV protease inh 0.11, MT1-MMP reporter inactive and Hsc70 ATP site 3.4%.
Screening COc1ccc(C2CC(=O)c3cnc(NC(=O)c4cccc(OC)c4)nc3C2)cc1 (stereo unspecified) returned WNV protease inh -1, MT1-MMP reporter inactive and Hsc70 ATP site -3.6%.

Compounds listed so far with a thiophene ring, fused or not:
C=CCn1c(SCc2cc(=O)n3ccsc3n2)nc2sc(C)c(C)c2c1=O was read as WNV protease inh 0.57, MT1-MMP reporter inactive and Hsc70 ATP site -0.3%.
`CCOC(=O)c1c(NC(=O)CSc2nnc(C)c(=O)[nH]2)sc2c1CCC2` gave WNV protease inh -1.4, MT1-MMP reporter inactive and Hsc70 ATP site 0.8%.

(next part)
`O=S(=O)(Nc1nc2ccccc2nc1NCCN1CCOCC1)c1cccc(Cl)c1` gave WNV protease inh 0.32, MT1-MMP reporter inactive and Hsc70 ATP site 1.3%.
For COc1ccc(C2(CNC(=O)Cc3ccc(OC)c(OC)c3)CCOCC2)cc1 the results were MT1-MMP reporter inactive and Hsc70 ATP site 1.1%.
CN(C)c1ncc(C2=C(Cl)C(=O)C(N3CCCC3)=C(Cl)C2=O)s1 was read as MT1-MMP reporter inactive and Hsc70 ATP site -1.3%.
Cc1onc(-c2ccccc2Cl)c1C(=O)OCn1nnc2ccccc2c1=O was read as WNV protease inh -1.2, MT1-MMP reporter inactive and Hsc70 ATP site 8.2%.
Screening COC(=O)Cc1c(C)nc2nc(Cc3ccccc3)[nH]n2c1=O returned WNV protease inh -1.5, MT1-MMP reporter inactive and Hsc70 ATP site 9.7%.
Screening COC(=O)c1ccc(CSc2nc3c(cnn3-c3ccc(F)cc3)c(=O)[nH]2)o1 returned WNV protease inh -0.2, MT1-MMP reporter inactive and Hsc70 ATP site -4.5%.
O=C(COC(=O)Cn1cnc2ccccc21)NCCc1ccccc1 was read as WNV protease inh -0.38, MT1-MMP reporter inactive and Hsc70 ATP site 7.0%.
`COc1ccc(-c2nn3cnnc3s2)cc1OC` gave WNV protease inh 0.94, MT1-MMP reporter inactive and Hsc70 ATP site -1.4%.
For C=CCOC(=O)C1=C(C)NC(SCC(=O)N(CC)CC)=C(C#N)C1c1ccco1 (stereo unspecified) the results were WNV protease inh -0.18, MT1-MMP reporter inactive and Hsc70 ATP site 4.1%.
For COC(=O)CCS(=O)(=O)c1ccc(Cl)c(Cl)c1 the results were WNV protease inh 2.2, MT1-MMP reporter inactive and Hsc70 ATP site -6.2%.
For O=C(O)c1c[nH]c(=S)n1-c1ccc(F)cc1 the results were MT1-MMP reporter inactive and Hsc70 ATP site -0.3%.
`CCN1C(=O)c2ccc(C(=O)O)cc2C1=O` gave WNV protease inh 1.4, MT1-MMP reporter inactive and Hsc70 ATP site -5.6%.
`Cc1cccc(NC(=O)Cn2cnc3ccc(S(=O)(=O)N4CCC(C)CC4)cc3c2=O)n1` gave WNV protease inh -0.42, MT1-MMP reporter inactive and Hsc70 ATP site -15%.
For Cc1cccc(-c2nnn(CC/C(N)=N/O)n2)c1 the results were WNV protease inh -0.25, MT1-MMP reporter inactive and Hsc70 ATP site 2.7%.
For Cc1c(-c2ccccc2)nc(N)c(C#N)c1-c1cccs1 the results were MT1-MMP reporter inactive and Hsc70 ATP site -11%.
CCOC(=O)CNC(=O)c1sc(NC(=O)c2ccccc2)nc1C was read as MT1-MMP reporter inactive and Hsc70 ATP site -2.2%.
`CC(C)CCOCC1CC2(CC(C)(c3csc(N)n3)OC2=O)C(=O)O1` (stereo unspecified) gave WNV protease inh -0.24, MT1-MMP reporter inactive and Hsc70 ATP site 6.8%.
Screening COc1cccc(N2CC34C=CC(O3)C(C(=O)O)C4C2=O)c1 (stereo unspecified) returned WNV protease inh 0.7, MT1-MMP reporter inactive and Hsc70 ATP site 1.0%.
`CCOC(=O)c1c(NC(=O)c2cccs2)sc(C(=O)N(C)C)c1C` gave MT1-MMP reporter inactive and Hsc70 ATP site -9.3%.
N#Cc1ccc(Oc2nc(C(N)=O)cc(-c3ccccc3)n2)cc1 was read as MT1-MMP reporter inactive and Hsc70 ATP site -1.5%.
For O=c1c2ccccc2nc(-c2ccccc2)n1CCN1CCOCC1 the results were WNV protease inh -0.0063, MT1-MMP reporter inactive and Hsc70 ATP site -2.8%.
Screening CSc1nc(N2CCN(CCO)CC2)c2sc3nc(-c4ccco4)c4c(c3c2n1)CCC4 returned WNV protease inh -0.88, MT1-MMP reporter inactive and Hsc70 ATP site -1.1%.
`O=c1sc2ccccc2n1COc1ccc(Cl)cc1` gave MT1-MMP reporter inactive and Hsc70 ATP site 2.3%.
Screening O=C(NCCC1=CCCCC1)c1cnccn1 returned WNV protease inh -0.83, MT1-MMP reporter inactive and Hsc70 ATP site -3.9%.
CC(C)Cn1c(-c2nn(C)cc2Cl)n[nH]c1=S was read as MT1-MMP reporter inactive and Hsc70 ATP site 3.7%.
O=C1Nc2ccccc2C12OCC1(CO2)COC2(OC1)C(=O)Nc1ccccc12 (stereo unspecified) was read as WNV protease inh -0.48, MT1-MMP reporter inactive and Hsc70 ATP site -1.7%.
CCOC(=O)C1CCCCN1Cc1cccc(F)c1 (stereo unspecified) was read as MT1-MMP reporter inactive and Hsc70 ATP site 0.6%.
For Cn1c(=O)[nH]c(=O)c2c1nc(Sc1ncccn1)n2CCCc1ccccc1 the results were WNV protease inh 2.2, MT1-MMP reporter inactive and Hsc70 ATP site -4.4%.
`Cc1cc(C)c(N2CCN(S(=O)(=O)N3CCCCCC3)CC2)c(C)c1` gave WNV protease inh 1.7, MT1-MMP reporter inactive and Hsc70 ATP site -12%.
Screening CC1=CCC2C(=O)N(c3ccc4ccccc4n3)C(=O)C2C1 (stereo unspecified) returned WNV protease inh -0.67, MT1-MMP reporter inactive and Hsc70 ATP site 3.2%.
For O=C(Cc1cccs1)NCC1CCCO1 (stereo unspecified) the results were WNV protease inh 0.07, MT1-MMP reporter inactive and Hsc70 ATP site -2.4%.
Cc1ccc(C)c2[nH]c(=O)c(CN(Cc3ccco3)S(=O)(=O)c3ccc4c(c3)OCCO4)cc12 was read as WNV protease inh -0.64, MT1-MMP reporter inactive and Hsc70 ATP site -4.1%.
For Cc1nc(C)c(-c2ccccc2)c(=O)[nH]1 the results were WNV protease inh -0.28, MT1-MMP reporter inactive and Hsc70 ATP site -7.2%.
For COc1cc(C2C(C(=O)OC(C)C)=C(C)Nc3[nH]c(=O)[nH]c(=O)c32)ccc1O (stereo unspecified) the results were WNV protease inh -1.6, MT1-MMP reporter inactive and Hsc70 ATP site 2.2%.
For CC1CCCC(C)N1C(=O)c1cc(-c2cccs2)on1 (stereo unspecified) the results were WNV protease inh -1.1, MT1-MMP reporter inactive and Hsc70 ATP site -7.1%.
Screening Cc1ccc(NC2=NC3(CCCCC3)N=C(N)N2)c(C)c1 returned WNV protease inh 0.88, MT1-MMP reporter inactive and Hsc70 ATP site -0.1%.
For O=C(C1CCC1)N1CCc2cc(S(=O)(=O)NC3CCCC3)ccc21 the results were WNV protease inh -0.16, MT1-MMP reporter inactive and Hsc70 ATP site -1.6%.
Screening CCCCCn1c(CNC(C)=O)nc2ccccc21 returned WNV protease inh 0.24, MT1-MMP reporter inactive and Hsc70 ATP site -7.2%.
For CCN(CCCn1c(SCC#N)nc2ccccc2c1=O)c1ccccc1 the results were WNV protease inh -0.98, MT1-MMP reporter inactive and Hsc70 ATP site -0.2%.
`Cc1cnc(C(=O)OCC(=O)Nc2ccc(Cl)cc2Cl)cn1` gave WNV protease inh -0.54, MT1-MMP reporter inactive and Hsc70 ATP site 9.2%.
`COC(=O)C1=C(C)NC(=S)N(C(C)=O)C1c1ccccc1` (stereo unspecified) gave MT1-MMP reporter inactive and Hsc70 ATP site 3.5%.
O=C(NCCCCCCNC(=O)c1ccc(Br)s1)c1ccc(Br)s1 was read as MT1-MMP reporter inactive and Hsc70 ATP site 0.1%.
For CCOC(=O)c1c(NC(C)=O)sc2c(OC(C)=O)cccc12 the results were MT1-MMP reporter inactive and Hsc70 ATP site -3.4%.
For Cc1ccc(NC(=O)CSc2nnc(-c3cnccn3)n2Cc2ccco2)cc1 the results were WNV protease inh 1.4, MT1-MMP reporter inactive and Hsc70 ATP site -0.2%.

Assay outcomes deposited in PubChem BioAssay by several laboratories.
